Screens from PubChem.
T cruzi inh: inhibitors of intracellular T. cruzi growth, primary screen, luminescence, NIH3T3 host cells; T. cruzi beta-gal in NIH3T3, 90 h; inhibition, % (concentration not given with the values); 300,000 tested, 1.4% active; AID 1885, 2009;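 active = mean inhibition across valid replicates above about 55%, limit read from the data; inconclusive = mean below that limit but half or more replicates reach it; inactive = mean below it, under half of replicates reach it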;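 also: signal also drops with host cell toxicity which is not excluded here; 0% = plate median of DMSO wells and 100% = zero luminescence signal; higher percent means less beta-gal luminescence so fewer parasites; stock transfer was 50 nL into about 50 µL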
RanGTP-Impb inh: inhibitors of RanGTP-importin-beta interaction, primary screen, biochemical, FRET, CFP-Ran, YFP-importin-beta, homogeneous; cell-free CFP-Ran/YFP-importin-beta FRET ratio; inhibition, % (no concentration beside the values); 300,000 tested, 1.1% active; AID 2216, 2009;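 active = most replicates above 15%; inconclusive = exactly half above 15%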;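 also: 0% = DMSO wells and 100% = Ran loaded with GDP instead of GTP; wells of about 40 µL received 100 nL stock; the first replicate is given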
B2AR ag: beta2AR agonists driving receptor internalization, primary screen, cell-based, FAP fluorogen, flow cytometry | 340,000 tested, 0.43% active | response, % (no concentration beside the values) | Am2.2-beta2AR cells; reference of the scale not given here;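 active = response above a set limit, near 3 SD of response in nonfluorescent compounds, cut at about 42% in these data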;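 also: stock transfer was 100 nL into about 11 µL; a reference agonist was the positive control; negative values mostly stem from fluorescent compounds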
Target sequence (P07550 whole entry, looked up): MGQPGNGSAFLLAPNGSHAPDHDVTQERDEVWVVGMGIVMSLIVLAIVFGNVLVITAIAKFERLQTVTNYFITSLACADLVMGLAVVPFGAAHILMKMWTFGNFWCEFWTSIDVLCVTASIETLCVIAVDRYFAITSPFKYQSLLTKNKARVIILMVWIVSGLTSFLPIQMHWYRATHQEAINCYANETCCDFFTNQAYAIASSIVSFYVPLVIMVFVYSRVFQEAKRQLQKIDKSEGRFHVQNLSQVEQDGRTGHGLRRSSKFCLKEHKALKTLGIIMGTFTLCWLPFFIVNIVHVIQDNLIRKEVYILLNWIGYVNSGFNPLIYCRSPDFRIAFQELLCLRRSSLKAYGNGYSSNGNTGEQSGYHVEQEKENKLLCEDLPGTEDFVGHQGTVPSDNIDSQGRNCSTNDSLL
Calb FLC: C. albicans growth inhibition with fluconazole, primary screen, CaCi-2 strain, Alamar Blue fluorescence; C. albicans CaCi-2 (fluconazole-resistant clinical isolate) + fluconazole, 48 h; growth inhibition, % (test concentration not listed); 300,000 tested, 0.57% active; AID 1979, 2009;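 active = most replicates above 75%; inconclusive = exactly half above 75%; inactive = most below 75%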;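 also: all wells also contain fluconazole at 8 µg/ml as a sub-toxic cotreatment; 0% = median of DMSO wells and 100% = median of geldanamycin control wells; wells of about 8 µL received 7.5 nL stock; the first replicate is given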
LANA-H2A inh: blockers of LANA interaction with H2A/H2B – biochemical, FP readout, HTS, primary screen; Protein LANA1 (Human herpesvirus 8 type P (isolate GK18)), Q9QR71; cell-free LANA-H2A/H2B peptide, fluorescence polarization; inhibition, % (test concentration not listed); 320,000 tested, 0.6% active; AID 2629, 2010; in the data active = inhibition mostly above about 10%, no sharp cut-off; inactive = mostly below about 6.7%;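 also: stock transfer was 7.5 nL into about 10 µL; 0% = median of vehicle wells and 100% = median of positive control wells; one replicate is shown; the record names a cut of 25% in any replicate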
Beta apoptosis: inhibitors of cytokine-induced beta cell apoptosis, primary screen, luminescence | INS-1E cytokine-induced death, ATP luminescence, 48 h; percent of positive-control rescue, neutral wells zero | protection from apoptosis, % (no concentration beside the values) | 300,000 tested, 0.8% active;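 active = all replicates at 75% or more, or half of them and the mean; inconclusive = half reach 75% but not the mean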;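 also: 0% = cytokine-treated negative control wells and 100% = positive control rescue; higher means more ATP so stronger rescue from cytokine killing; wells of about 40 µL received 100 nL stock; the first replicate is given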
UCH37 DUB inh: inhibitors of human UCH37 deubiquitinase, primary screen, biochemical, Ub-AMC cleavage, fluorescence | Ubiquitin carboxyl-terminal hydrolase isozyme L5 (Homo sapiens), Q9Y5K5 | purified proteasome/UCH37 | inhibition, % (concentration not given with the values) | 330,000 tested, 0.33% active | AID 588478, 2011;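 active = mean of two replicates above 20%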;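 also: 0% = compound-free wells with enzyme and 100% = wells lacking proteasome; stock transfer was 100 nL into about 20 µL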
Target sequence (Q9Y5K5 whole entry, looked up): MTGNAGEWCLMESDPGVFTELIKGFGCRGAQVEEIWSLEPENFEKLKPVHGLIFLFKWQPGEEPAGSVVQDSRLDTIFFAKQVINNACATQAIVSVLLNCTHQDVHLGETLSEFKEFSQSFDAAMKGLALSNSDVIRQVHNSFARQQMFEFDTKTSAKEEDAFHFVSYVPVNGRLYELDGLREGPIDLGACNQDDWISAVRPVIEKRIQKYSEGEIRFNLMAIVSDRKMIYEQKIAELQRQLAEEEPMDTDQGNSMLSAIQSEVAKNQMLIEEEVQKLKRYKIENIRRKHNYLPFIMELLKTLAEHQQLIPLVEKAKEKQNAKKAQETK
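Test system – human UCH37 enzyme supplied as purified proteasome complex · Incubation – 30 min preincubation with enzyme, 25 min cleavage at room temperature · Detection – AMC fluorescence from Ub-AMC cleavage, excitation 355 nm, emission 460 nm · Benchmarks – no-proteasome wells (full inhibition) and compound-free wells (no inhibition)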
A1 inh: caspase 3/7 activation in MEF A1-2A-BIM cells, primary screen, A1 inhibitor project, cell-based, luminescence, HTS. 330,000 tested, 0.066% active. caspase activation, % (concentration not given with the values). Caspase-Glo 3/7 luminescence, 3 h; percent of clofoctol response, vehicle zero;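 active = over half of replicate activation scores above 10%, or exactly half above 10 with the replicate mean above 10; inconclusive = replicate mean below 10 yet half the replicates above 10; inactive = over half of replicates below 10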;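 also: wells of about 30 µL received 50 nL stock; many hits fall short of the cut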
Numbers without * were called inactive; ? = inconclusive; · = not tested or not shown.

compound	A1 inh	T cruzi inh	Beta apoptosis	RanGTP-Impb inh	B2AR ag	Calb FLC	UCH37 DUB inh	LANA-H2A inh
O=C(CCc1nnc(CCCCc2ccccc2)o1)NCCn1cccn1	0.4	-23	3	-2.6	-10	-3	-1.2	4.4
COc1cc(OC)c(OC)cc1CN(C)C(c1ccccc1)c1nnnn1-c1ccccc1C (stereo unspecified)	0.2	29	-3	-0.1	-1	?	5.7	·
COc1ccc(/C=N/NC(=O)c2cccc(S(=O)(=O)N3CCCC3)c2)cc1O	0.5	·	-7	·	6	·	·	1.4
Cc1ccc(C)c(NC(=O)C(NCC(C)(C)N2CCOCC2)c2ccccc2)c1 (stereo unspecified)	-0.2	17	-4	0.7	-1	-29	0.5	-5.2
CCOC(=O)C1=NN(C(C)=O)C2(CC(=O)N(c3ccc(C)c(C)c3)C2=O)C1 (stereo unspecified)	0.1	-34	-5	1.4	4	-5	-0.1	4.1
CCOc1ccc(Br)cc1S(=O)(=O)Nc1ncn[nH]1	0.3	-10	-2	-2.2	5	4	1.2	-6.7
Cc1ccsc1C(=O)OCC(=O)N1CCc2ccccc2C1	-1.0	1	1	-2.5	-9	3	1.5	-7.9
Cc1ccc(S(=O)(=O)N(C)C)cc1NC(=O)C(C)OC(=O)/C=C/c1cccs1 (stereo unspecified)	-0.3	-3	-1	4.2	-9	6	5.6	1.2
Cc1cccc(-c2nc(Nc3ccc(N4CCOCC4)cc3)c3ccccc3n2)c1	0.1	56*	3	2.3	-3	5	-8.1	4.4
Cc1ccc(C(=O)CSc2nn3c(=O)c(C(C)(C)C)nnc3s2)cc1	0.7	-13	-27	11	-8	-8	3.5	3.3
COc1ccc(N(C(=O)c2ccn[nH]2)C(C(=O)NC(C)(C)C)c2ccc(F)cc2)cc1 (stereo unspecified)	0.6	8	-1	-1.6	0	5	1.4	-1.3
CCc1ccc(C(=O)NC(=S)Nc2ccccc2N2CCOCC2)cc1	2.2	26	6	-6.7	0	0	2.2	-3.6
CCCCn1cnc2c(sc3nc4c(cc32)CSC(C)(C)C4)c1=O	-1.4	18	0	-3.5	-12	40	-0.1	0.6
COc1ccc(-n2nnnc2SCc2nc(N)nc(N3CCOCC3)n2)cc1	2.2	2	1	-4.1	-8	0	1.4	-3.9
O=C(Nc1cnccn1)c1ccncc1	0.2	-18	-8	0.4	4	-2	-0.3	6.2
COc1ccccc1N1CCN(/N=C/c2cccc(OC)c2O)CC1	-5.6	-3	-3	-3.6	0	-11	·	-4.2
CC(C)c1ccccc1-n1cc[nH]c1=S	0.4	-5	-13	0.4	3	-10	2.2	1.3
Clc1cccc(CN2CCCCCC2)c1	1.3	9	0	2.4	5	-8	1.8	2.6
Cn1cc(/C=N/n2cnc3sc4c(c3c2=O)CCCC4)c2ccccc21	0.5	3	-3	0.2	1	23	·	-1.3
O=c1oc(-c2cccs2)nc2ccc(Cl)cc12	-2.5	7	0	-0.6	4	4	-42	-3.9
Cc1nc(NC(=O)C2CCCCC2)sc1C	-2.0	-8	-6	-0.1	-4	-21	1.9	9.2
CC(=O)CCc1ccc(OCCCCn2cncn2)cc1	0.4	-7	-2	6.8	3	0	0.3	-0.1
Cn1c(=O)[nH]c(=O)c2c1nc(SCC(O)CO)n2CCCc1ccccc1 (stereo unspecified)	0.3	2	-5	2.4	4	5	2.8	0.8
Cc1cccc(C)c1NC(=O)CN(C)CC(=O)N1CC(=O)Nc2ccccc21	-0.3	·	1	·	0	·	3.3	-5.2
Cc1ccc(-n2nc(C)c3c2OC(N)=C(C#N)C3c2cccs2)cc1 (stereo unspecified)	0.9	-10	·	3.9	9	6	1.0	-5.9
CCCNC(=O)CC(NS(=O)(=O)c1ccc(NC(C)=O)cc1)C(C)C (stereo unspecified)	-0.5	-3	-5	-2.9	-1	-3	1.4	-3.8
COc1ccc(C(=O)C[n+]2cc(Br)cc3ccccc32)cc1[N+](=O)[O-]	1.0	46	5	-3.0	-36	5	-2.0	-3.8
COc1ccc(/C(O)=C2/C(=O)C(=O)N(CCCN3CCOCC3)C2c2ccc(N(C)C)cc2)cc1 (stereo unspecified)	-0.1	-10	·	12	14	1	7.1	-4.8
O=C(CCNC(=O)c1ccc([N+](=O)[O-])cc1)Nc1ccccc1N1CCOCC1	-0.2	7	-2	0.8	-1	-22	6.9	-3.3
COc1ccc(CCNC(=O)C23CCC(C)(C(=O)C2=O)C3(C)C)cc1OC (stereo unspecified)	0.1	-11	1	5.5	0	4	2.2	-2.2
COc1cc(/C=N\NC(=O)c2cccnc2)ccc1OC(=O)c1ccccc1Cl	-0.5	-6	-4	-1.2	22	-3	·	-4.2
Cc1ccc(NC(c2ccccc2)c2nc3ccccc3[nH]c2=O)cc1 (stereo unspecified)	1.0	19	-4	1.0	1	-3	5.4	6.4
COc1ccc(C2SCC(=O)N2Cc2ccccc2)cc1 (stereo unspecified)	0.4	4	-6	2.0	-5	-9	-0.6	1.0
Cc1cc(=O)[nH]c(N/N=C/C(C)c2ccccc2)n1 (stereo unspecified)	0.1	15	-8	0.5	-3	0	·	3.9
CCOc1ccc(OCCn2ccnc2)cc1	-0.5	-1	0	0.9	-13	15	1.2	2.2
O=C(COc1ccccc1Cl)Nc1ccc(N2CCN(C(=O)c3ccccc3)CC2)cc1	-0.8	27	·	-0.6	14	-2	1.5	-2.5
N#Cc1c(-c2ccccc2)cc(-c2ccccc2)nc1SCCC(=O)O	0.4	31	-2	1.6	-5	54	5.7	3.1
Cc1cc(S(=O)(=O)NC2CCCCC2)ccc1-n1cnnn1	0.3	-1	4	2.4	-3	2	0.9	7.7
CCCCCOC(=O)C1C2C=CC3(CN(c4ccccc4C)C(=O)C13)O2 (stereo unspecified)	0.1	-2	-10	1.6	-5	-4	4.7	0.3
COc1ccccc1CCC(=O)OCC(=O)N1c2ccccc2NC(=O)C1(C)C	0.1	·	-2	·	1	·	0.9	·

Some of these compounds in order of heavy-atom count, rising.
compound	A1 inh	T cruzi inh	Beta apoptosis	RanGTP-Impb inh	B2AR ag	Calb FLC	UCH37 DUB inh	LANA-H2A inh
CCOc1ccc(OCCn2ccnc2)cc1	-0.5	-1	0	0.9	-13	15	1.2	2.2
Cc1cc(=O)[nH]c(N/N=C/C(C)c2ccccc2)n1 (stereo unspecified)	0.1	15	-8	0.5	-3	0	·	3.9
Cc1ccc(-n2nc(C)c3c2OC(N)=C(C#N)C3c2cccs2)cc1 (stereo unspecified)	0.9	-10	·	3.9	9	6	1.0	-5.9
N#Cc1c(-c2ccccc2)cc(-c2ccccc2)nc1SCCC(=O)O	0.4	31	-2	1.6	-5	54	5.7	3.1
COc1ccc(CCNC(=O)C23CCC(C)(C(=O)C2=O)C3(C)C)cc1OC (stereo unspecified)	0.1	-11	1	5.5	0	4	2.2	-2.2

A second format for 2 compounds above:
Fields: A1 inh	T cruzi inh	Beta apoptosis	RanGTP-Impb inh	B2AR ag	Calb FLC	UCH37 DUB inh	LANA-H2A inh
- Cc1cc(=O)[nH]c(N/N=C/C(C)c2ccccc2)n1 (stereo unspecified)
    0.1	15	-8	0.5	-3	0	·	3.9
- CCOc1ccc(OCCn2ccnc2)cc1
    -0.5	-1	0	0.9	-13	15	1.2	2.2

(listing goes on)
compound	A1 inh	T cruzi inh	Beta apoptosis	RanGTP-Impb inh	B2AR ag	Calb FLC	UCH37 DUB inh	LANA-H2A inh
NS(=O)(=O)c1ccc(CCNC(=O)C(=O)c2cn(CC(=O)N3CCCC3)c3ccccc23)cc1	0.2	-3	-3	1.8	3	1	1.1	1.1
c1ccc(-c2cc3ncccc3cn2)cc1	-7.8	·	0	·	-6	·	0.9	4.2
Cc1oc2c(c(C)cc3oc(=O)c(CC(=O)NCCCO)c(C)c32)c1C	1.8	8	5	0.6	4	-15	-226	-0.9
Cc1cc(C(=O)Nc2c(C)nn(Cc3ccc(F)cc3)c2C)on1	0.6	-4	-2	4.3	-2	-1	4.7	0.6
Cc1cc(C)cc(OCC(O)CN2CCC(CN3C(=O)c4cccc5cccc(c45)C3=O)CC2)c1 (stereo unspecified)	0.2	57*	78*	5.0	12	6	-37	2.0
Cc1cccc(NC(=O)c2cc3c([nH]c4ccccc43)c(C)n2)c1C	0.7	2	-3	-1.7	4	-5	-30	-0.8
COc1cccc(NC(=S)N2CCN(S(C)(=O)=O)CC2)c1	-0.2	·	-1	·	-8	0	0.9	0.8
COc1ccc(OCc2n(CC(=O)OC3CC(C)CCC3C(C)C)c3ccccc3[n+]2C)cc1 (stereo unspecified)	0.7	50	100*	3.3	25	-1	5.7	-3.5
O=S1(=O)N=C(Oc2ccccc2)c2ccccc21	1.1	-7	-4	·	4	-8	1.7	1.4
COc1nccc(C(F)(F)F)c1C(=O)Nc1ccc(Cl)cc1	0.2	4	7	2.0	0	-17	2.7	2.3
N=c1c(C(=O)NC2CCCCC2)cc2c(=O)n3ccccc3nc2n1Cc1ccco1	0.7	22	-1	65*	-7	-1	-50	-2.9
O=C(Nc1cccc(S(=O)(=O)Nc2ccccc2F)c1)c1ccco1	-0.1	·	-7	·	-7	·	4.8	-1.6
CCS(=O)(=O)N1CCN=C1SCc1ccccc1	0.1	-2	0	-0.6	-2	11	7.0	-3.9
COc1cccc(-c2c(C(=O)N/N=C/c3ccco3)nnn2-c2nonc2N)c1	-1.4	-9	-4	1.3	-13	-3	·	-3.4
CCOc1ccccc1NC(=O)CCn1ccnc1	-0.1	-6	3	-0.3	2	-1	-2.4	11
Cc1ccc(OCCNc2ccc(C(F)(F)F)cc2[N+](=O)[O-])cc1	-0.2	12	7	-2.6	6	-6	3.3	-0.3
S=C(NCc1ccccn1)Nc1ccc(Br)cc1Cl	-0.6	-5	·	1.5	0	3	1.8	-16
CC(=O)Nc1nc(-c2ccc3c(c2)OCO3)cs1	-2.7	-4	0	-2.3	1	1	3.9	3.2

Printed as active in RanGTP-Impb inh, among the entries above:
SMILES	A1 inh	RanGTP-Impb inh	B2AR ag	UCH37 DUB inh	LANA-H2A inh
N=c1c(C(=O)NC2CCCCC2)cc2c(=O)n3ccccc3nc2n1Cc1ccco1	0.7	65*	-7	-50	-2.9
